Assay outcomes from PubChem BioAssay.
ClpP mod = qHTS Assay for Activators of ClpP. ATP-dependent Clp protease proteolytic subunit (Bacillus subtilis (strain 168)), P80244. purified B. subtilis ClpP, FRET peptide cleavage, 20 min. Potency, µM (series often up to 57.5 µM), without a hit: top-dose activity change, negative = active. 340,000 tested, 1.9% active. AID 651965, 2013; active = well fitted falling curve with a large enough effect; inconclusive = small, poorly fitted or top-dose-only effect; inactive = no such curve, though single readings can be large or run the other way; further: potency means the concentration at half of the fitted maximal effect; the source files actives as falling curves though it sought activators and does not explain the sign; nearly all actives have a fitted effect of over 65% in size; many hits overshoot -100%
Target sequence (P80244 whole entry, looked up): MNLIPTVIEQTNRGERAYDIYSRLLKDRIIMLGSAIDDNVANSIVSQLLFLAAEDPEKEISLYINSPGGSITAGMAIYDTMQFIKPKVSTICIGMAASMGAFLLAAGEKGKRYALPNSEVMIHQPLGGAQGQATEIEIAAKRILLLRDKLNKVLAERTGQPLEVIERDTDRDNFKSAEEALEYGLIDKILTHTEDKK
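FRET quenching reversal measured ClpP activation: 10 microg/mL B. subtilis ClpP at pH 8 with the FRET-FV decapeptide, read at 430 nm after 320 nm excitation. The 20-min minus 0-min signal was scaled between DMSO/no-enzyme wells and ADEP (5.8 microM final).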
TRPV1 PAM = potentiators of human vanilloid receptor 1 (TRPV1) | AID 540277 | TRPV1-expressing cells, Fluo-8 calcium influx, capsaicin EC20 potentiation; host cell line not named in the record; control for the full effect not named in the record | potentiation, % at 8.33 µM | Q8NER1 | 320,000 tested, 0.02% active; active means potentiation above 80%; inconclusive means 30% to 80%; inactive means below 30%; further: 0% is about no effect
Target sequence (Q8NER1 whole entry, looked up): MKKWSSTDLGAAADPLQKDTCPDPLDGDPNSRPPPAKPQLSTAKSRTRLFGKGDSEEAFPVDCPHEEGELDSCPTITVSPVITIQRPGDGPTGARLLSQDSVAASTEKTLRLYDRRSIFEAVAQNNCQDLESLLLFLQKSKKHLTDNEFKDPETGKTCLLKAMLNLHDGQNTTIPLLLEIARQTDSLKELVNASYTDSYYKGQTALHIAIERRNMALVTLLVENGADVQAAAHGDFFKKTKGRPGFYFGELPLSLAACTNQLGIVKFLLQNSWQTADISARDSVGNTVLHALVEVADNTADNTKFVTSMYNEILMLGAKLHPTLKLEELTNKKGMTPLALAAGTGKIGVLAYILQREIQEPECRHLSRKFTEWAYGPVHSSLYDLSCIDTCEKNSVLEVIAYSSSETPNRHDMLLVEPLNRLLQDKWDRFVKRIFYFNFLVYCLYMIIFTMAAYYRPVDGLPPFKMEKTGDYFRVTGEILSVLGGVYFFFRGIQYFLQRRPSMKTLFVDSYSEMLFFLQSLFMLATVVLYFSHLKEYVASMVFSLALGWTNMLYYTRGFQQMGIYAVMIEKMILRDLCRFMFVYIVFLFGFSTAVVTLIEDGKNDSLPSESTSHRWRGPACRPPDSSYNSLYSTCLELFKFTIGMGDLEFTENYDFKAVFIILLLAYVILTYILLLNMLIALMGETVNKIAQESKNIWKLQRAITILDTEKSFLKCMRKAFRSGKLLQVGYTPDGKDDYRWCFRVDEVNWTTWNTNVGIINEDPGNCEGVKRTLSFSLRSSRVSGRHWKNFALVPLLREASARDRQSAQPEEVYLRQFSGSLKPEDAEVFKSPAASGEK
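Fluo-8 calcium influx in TRPV1-expressing cells, kinetic read (ex 480/em 520 nm). Compound added and read 3 min for agonist activity, followed by capsaicin at EC20 final and 2 min further read for enhancement.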
gsp agonist = activates gsp, the McCune-Albright syndrome mutation; gsp mutant cells, cAMP HTRF, 30 min; control for the full effect not named in the record; Potency, µM (series often up to 76.9 µM), inactives show at the top dose activation (cAMP increase), usual class: activators; 340,000 tested, 0.13% active; AID 624287; active = well fitted activation curve with a large enough effect; inconclusive = small, poorly fitted or top-dose-only effect, or another doubt; inactive = no such curve, though single readings can be large or run the other way; cell line not stated here;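 further: phosphodiesterase inhibitor Ro 20-1724 added with compounds to block cAMP breakdown; potency means the concentration at half of the fitted maximal effect; nearly all actives have a fitted effect of over 60% in size; about a fifth of the inactives were tested at one dose only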
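Cells stably selected in G418 were plated at 2000/well, grown 16-24 hr, then given compounds in DMSO with the PDE inhibitor […] (300 uM solution added) for 30 min at 37C; cAMP was read by HTRF.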
Sfp PPTase inh = inhibitors of Bacillus subtilis Sfp phosphopantetheinyl transferase; Q9F4F7; Biochemical Sfp PPTase activity, qHTS; 310,000 tested, 3.5% active; AID 1490; Potency, µM, for the others: max response, negative = inhibition, hits mostly inhibitors; active means well fitted inhibition curve with a large enough effect; inconclusive means small, poorly fitted or top-dose-only effect, or another doubt; inactive means no such curve, though single readings can be large or run the other way;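 further: the enzyme is Sfp with the accession as filed and its product quenches rhodamine fluorescence; potency means the concentration at half of the fitted maximal effect; 0% = enzyme reaction without inhibitor and -100% = no enzyme wells; top concentration of the series not given in the record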
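Fluorescence-quenching assay: 15 nM Sfp-PPTase preincubated 15 min at room temperature with compound, then 5 uM rhodamine-CoA and 12.5 uM BHQ-2-labelled YbbR peptide added. Fluorescence (ex 525/em 598 nm) read at start and after 30 min; difference gives rate.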
TRPML1 inh = human mucolipin-1 channel inhibition; 390,000 tested, 0.02% active; Q9GZU1; activity change, negative = inhibition, % (test concentration not listed); TRPML1-inducible cells, Ca2+ dye fluorescence, FDSS; active compounds read low; inhibition of EC80 agonist-evoked calcium signal; in the data active means activity change below about -50%; inconclusive means about -30% to -50%; inactive means above about -30%;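 further: stimulus is agonist 54-4 at its EC80 concentration; on the % scale 0 is the no-effect control and ±100 the full control effect; compound concentration not given in the record; the text of the record puts the active cut at -80%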
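Calcium fluorescence in TRPML1-DL cells induced overnight with Tet: a 110 s read after compound pin addition, then a 110 s antagonist read after challenge with 54-4 at 4 uM final (EC80).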
gsp antagonist = antagonizes gsp, the McCune-Albright syndrome mutation | Potency, µM (highest dose often 76.9 µM), for inactives: top-dose activity change, negative = inhibition, actives largely listed as inhibitors | gsp-mutant cells, cAMP HTRF, 30 min; control for the full effect not named in the record | 340,000 tested, 0.4% active; active = falling curve of any shape with a large fitted effect; inconclusive = falling curve, mostly with a smaller effect; inactive = flat or rising curve; cell line not stated here;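 further: intracellular cAMP measured with PDE inhibitor Ro 20-1724 present during compound exposure; potency means the concentration at half of the fitted maximal effect; on the % scale 0 is the no-effect control and ±100 the full control effect; nearly all actives have a fitted effect of over 65% in size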
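Measurement of cellular cAMP by homogeneous time-resolved fluorescence following a 30 min compound exposure at 37C. The PDE inhibitor […] was present throughout; the assay buffer was DPBS with 0.05% BSA and 0.005% Tween 20.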
Menin-MLL FL inh = displaces fluorescein MLL peptide from human menin; 290,000 tested, under 10 active; Fluorescence polarization, fluorescein-MLL peptide displacement from menin; FP activity change, % at 61.4 µM; AID 1766; inconclusive = falling polarisation curve, or a change in total fluorescence; inactive = total fluorescence flat and polarisation flat or rising; no compound was filed as active; the % refers to the polarisation; negative = inhibition;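 further: % of control where 0% means no effect; inhibitors lower the polarisation; unlabelled MLL peptide was the positive control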
* hit, by the source's call; ? = inconclusive; nt = no result given; & = joins results of further samples; [ ] = remark or other dose.

nr	structure	ClpP mod	TRPV1 PAM	gsp agonist	Sfp PPTase inh	TRPML1 inh	gsp antagonist	Menin-MLL FL inh
1	S=c1[nH]nc(-c2cc3c(s2)-c2ccccc2CC3)o1	38%	3	?	?	-18	-6%[15.4 µM]	2.2
2	CC1(C)NC(=O)N(CCCOc2ccc3c(c2)CCC3)C1=O	4.3%	-3	0%	1%	28	-13%	8.7
3	O=C(/C=C/Nc1ccc(S(=O)(=O)Nc2cnc3ccccc3n2)cc1)c1ccccc1	nt	?	-15%[15.4 µM]	8%	21	-3%	7.8
4	CCOC(=O)C1=C(C)NC(=O)C(C(N)=O)C1c1ccccc1 (stereo not given)	-0.3%	3	13%	18%	3	-10%	2.6
5	Cc1cc(N2CCCCC2)nc(NCc2ccccc2)n1	-1.3%	-5	-6%[15.4 µM]	-22%	7	1%	-2.7
6	O=C(Nc1ccccc1Oc1ccccc1)C1CCCC1	-1.3%	5	-23%	-9%	-8	4%	7.5
7	Cc1ccc(NC(=O)N2CCC(C(N)=O)CC2)cc1	0.7%	2	-17%	8%	-5	-1%	0.0
8	CC1CCN(CCCNC(=O)c2nn(C)c3c2CS(=O)(=O)c2ccccc2-3)CC1	-4.1%	-7	15%	10%	1	4%	4.1
9	Cc1ccc([C@@H]2C[C@H]3[C@@H](CN2S(=O)(=O)c2ccc(Cl)cc2)C(=O)C[C@@H](c2ccccc2F)N3S(=O)(=O)c2ccc(C)cc2)cc1	-0.3%	nt	-88%[inhibitor]	nt	-12	nt	nt
10	O=C(N/N=C/c1cccnc1)NC12CC3CC(CC(C3)C1)C2	nt	nt	-3%[15.4 µM]	1%	-3	5%	6.3

(continued)
nr	structure	ClpP mod	TRPV1 PAM	gsp agonist	Sfp PPTase inh	TRPML1 inh	gsp antagonist	Menin-MLL FL inh
11	O=C1C=C(N2CCOCC2)CCC1	0.6%	nt	?	nt	10	5%	nt
12	CC1CCN(C(=O)CSc2nc3cccnc3n2C)CC1	0.4%	2	?	21%	-29	15%	7.7
13	Cc1ccc(-c2nc3ncccn3c2NC2CCCCC2)o1	-0.4%	-5	-25%	45µM*	9	-11%	2.0
14	CCOCCCNC(=O)Cn1nc(Cc2ccncc2)c2ccccc2c1=O	nt	?	25%	16%	4	-1%	-1.8
15	O=C(NCc1ccc2c(c1)OCO2)C1CCCN1C(=O)Nc1cccc(Cl)c1 (stereo not given)	-2.6%	6	3%	10%	-18	-9%	-0.1
16	O=S(=O)(c1ccc2nc(-c3ccccc3)[nH]c2c1)N1CCN(c2ccc(Cl)cc2)CC1	-1.3%	-3	?	?	-15	-13%	5.7
17	C=CCc1ccccc1OCCNCCCOC	0.8%	0	-2%	23%	5	11%	-0.9
18	CCc1nc(NCc2ccccn2)c2oc3ccccc3c2n1	-7.4%	8	-11%	13%	-23	-4%	-6.0
19	CCOCCCNC(=O)NC(=O)CN1CCN(S(=O)(=O)c2ccc3c(c2)OCCO3)CC1	0.1%	3	38%	18%	-9	-1%	0.4
20	C=C1C(=O)O[C@H]2C1CC[C@@](C)(O)C13C=CC(C)(C21)C1(C3)C(=O)O[C@@H]2C3C(C)=CCC3[C@](C)(O)C[C@H](OC(C)=O)C21 (stereo not given in full)	0.9%	-5	-26%	0%	-14	0%	10

Later entries.
nr	structure	ClpP mod	TRPV1 PAM	gsp agonist	Sfp PPTase inh	TRPML1 inh	gsp antagonist	Menin-MLL FL inh
21	CC(C)CN(C(=O)CN1CCC(C)CC1)c1c(N)n(CC(C)C)c(=O)[nH]c1=O	-0.9%	-5	10%	21%	2	11%	?
22	COc1ccc2nc(Nc3nc(C)c(CCC(C)C)c(=O)[nH]3)nc(C)c2c1	0.1%	-8	4%	17%	-3	-12%	2.1
23	CCNC(=O)N1c2ccccc2Sc2ccccc21	-5.8%	3	11%	-11%	52	-12%	0.2
24	CN1\C(=C/C=C/C=C/C=[N+](C)C)C(C)(C)c2ccccc21	4.0%	-12	?	56µM*	5	-26%	?
25	COc1ccc(OC)c(NC(=O)CCN2CCCCCC2)c1	1.2%	8	-48%[inhibitor]	4%	-14	21%	5.5
26	COc1ccc(/C=C/c2ccc(=O)n(Cc3ccccc3)n2)cc1	nt	-2	-2%[15.4 µM]	-27%	10	-21%	5.3
27	O=C(Cn1c(-c2ccccc2)noc1=O)Nc1ccc(S(=O)(=O)N2CCOCC2)cc1	-1.7%	11	-91%[inhibitor]	4%	-14	-4%	0.8
28	CCCNC(=O)C(=O)NCC1CCCN1CC (stereo not given)	nt	17	9%[15.4 µM]	2%	4	1%	-2.7
29	Cc1ccc(-c2nc(CCNC(=O)c3ccco3)cs2)cc1	-3.6%	-14	-60%	nt	10	-9%	nt
30	O=C(CN1CCOCC1)N1CCN(c2ccc([N+](=O)[O-])cc2)CC1	-0.3%	7	0%[15.4 µM]	9%	7	3%	-0.6

(list continues)
nr	structure	ClpP mod	TRPV1 PAM	gsp agonist	Sfp PPTase inh	TRPML1 inh	gsp antagonist	Menin-MLL FL inh
31	CCOc1ccccc1Nc1nnc(SCC(=O)NC2CC2)s1	2.8%	nt	21%	nt	0	-8%	nt
32	CC(C)[C@H](NC(=O)C1CCN(S(=O)(=O)c2ccc(F)cc2)CC1)C(=O)NCc1ccncc1	0.0%	21	-3%	21%	9	9%	nt
33	O=c1cc(-c2ccccc2)nc(/C=C/c2ccccc2)[nH]1	nt	-16	2%[15.4 µM]	24%	-6	2%	0.5
34	Cc1nn2c3ccccc3n(CCN3CCCCC3)c2nc1=O	?	3	14%	23%	-9	7%	0.3
35	N#Cc1nc(COc2ccccc2)oc1NCCN1CCOCC1	-1.3%	29	-6%[15.4 µM]	15%	-4	-7%	-0.7
36	CCOC(=O)C1CCCN(c2ncnc3c2cnn3-c2ccc(OC)cc2)C1 (stereo not given)	-6.7%	2	7%	5%	23	-30%	3.9
37	Cc1ccc(S(=O)(=O)NCC(=O)OCc2nnc(-c3ccccc3)o2)cc1	2.0%	-5	-36%[inhibitor]	19%	-1	-9%	nt
38	N=C1/C(=C\c2ccc(OCc3ccccc3)cc2)C(=O)N=C2SC(N3CCCC3)=NN12	nt	-13	nt	7%	nt	nt	0.4
39	CCOc1ccc(NC(=O)C(=O)NCC2CCCN2CC)cc1 (stereo not given)	-1.5%	-1	-10%	0%	22	6%	5.5
40	CCNc1nc(Oc2ccc(F)cc2)cc(C(F)(F)F)n1	nt	1	22%[15.4 µM]	14%	30	-5%	-4.2

Further results:
nr	structure	ClpP mod	TRPV1 PAM	gsp agonist	Sfp PPTase inh	TRPML1 inh	gsp antagonist	Menin-MLL FL inh
41	O=C(CN(Cc1cccs1)C(=O)c1csnn1)NC1CCCC1	-1.2%	2	-7%	5%	11	-12%	3.2
42	COC(=O)c1c(Cl)c2n3ccccc3c(C)c(-c3ccccc3)c-2c1C(=O)OC	-23%	-6	18%	-28%	13	-10%	?
43	Cn1c(Cn2cnc([N+](=O)[O-])n2)nnc1SCC(=O)Nc1ccc(Br)cc1	1.9%	-6	0%[15.4 µM]	14%	-3	11%	0.6
44	COc1ccc(S(=O)(=O)Nc2ccc3c(c2)COC3=O)cc1OC	-0.8%	2	20%	6%	7	-7%	8.6
45	CN(C)C(=S)NCc1ccccc1	-0.7%	16	-31%[inhibitor]	-6%	19	11%	4.1
46	Cc1ccc(-c2nnc(Nc3ccccc3)o2)cc1	-4.3%	-9	-27%	15%	-8	4%	0.5
47	O=C(CN1C(=O)c2ccccc2S1(=O)=O)NC1CC2CCC1C2 (stereo not given)	1.6%	0	-19%	-3%	14	6%	1.6
48	CC(=O)N1CCc2cc(S(=O)(=O)NCCCN3CCN(Cc4ccccc4)CC3)ccc21	-1.2%	-11	-7%	13%	1	-2%	-2.2
49	O=C(Nc1ccncc1)Nc1ccc(F)cc1	0.0%	-3	?	14%	-11	7%	-0.4
50	CC(C)CN(C(=O)Cn1nnc(-c2ccc(Cl)cc2)n1)C1CCS(=O)(=O)C1 (stereo not given)	-1.7%	nt	22%	nt	-7	nt	nt

(further entries)
nr	structure	ClpP mod	TRPV1 PAM	gsp agonist	Sfp PPTase inh	TRPML1 inh	gsp antagonist	Menin-MLL FL inh
51	Cc1ccc(C(=O)NCC(=O)OCc2nc3ccsc3c(=O)[nH]2)cc1C	0.6%	nt	25%	nt	10	nt	nt
52	CCn1c(SCC(=O)c2c(N)n(C3CC3)c(=O)[nH]c2=O)nc2cc(S(N)(=O)=O)ccc21	-1.9%	0	?	nt	0	11%	nt
53	Cc1cc(N2CC(C(=O)NCc3cccs3)CC2=O)ccc1C(C)C (stereo not given)	-2.6%	-25	6%	1%	11	-5%	1.7
54	Cc1ccc(OCC(=O)c2cc(C)n(Cc3cccs3)c2C)c([N+](=O)[O-])n1	?	-1	0%[15.4 µM]	-13%	-12	-10%	-2.7
55	COc1c2ccoc2nc2c(OC)c(OCC(O)C(C)(C)O)ccc12 (stereo not given)	?	1	6%	6%&7%&-2%	-18	-3%	2.9&18&3.8
56	CC(=O)N(Cc1ccccc1)Cc1cn(CCC#N)nc1-c1cccc([N+](=O)[O-])c1	nt	2	-5%	15%	-10	0%	-1.8
57	COc1cccc(CNC(=O)c2ccc(CS(=O)(=O)Cc3ccccc3C)o2)c1	nt	-3	?	16%	-15	-7%	-1.0
58	COC(=O)C(C)(C)c1cccnc1C#N	0.2%	nt	nt	nt	4	9%	nt
59	CC(=O)c1sc2nc(C)cc(C)c2c1N	?	5	-15%	3%	-3	2%	-1.1
60	CCCCNC(=O)c1ccccc1Cl	0.6%	-9	-12%	17%	-10	0%	-0.1
61	COc1cccc(N(C(=O)c2snc(C(N)=O)c2N)C(C(=O)NCC2CCCO2)c2c[nH]c3ccccc23)c1 (stereo not given)	nt	18	22%[15.4 µM]	-7%	13	-7%	6.5
62	CCOC(=O)CNC(=O)c1cnc(Nc2ccccc2OC)c2ccccc12	nt	-12	-8%	14%	8	-5%	0.1
